High-throughput results as filed in PubChem BioAssay.
RanGTP-Imp inh: inhibitors of RanGTP-importin-beta interaction, primary screen, biochemical, FRET, CFP-Ran, YFP-importin-beta, homogeneous | cell-free CFP-Ran/YFP-importin-beta FRET ratio | Ran GTPase (GTP-bound) - importin-beta complex | inhibition, % (concentration not given with the values) | actives 1.1% (n = 300,000);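 active = most replicates above 15%; inconclusive = exactly half above 15%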;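 also: 0% = DMSO wells and 100% = Ran loaded with GDP instead of GTP; wells of about 40 µL received 100 nL stock; the first replicate is given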
LANA-H2B inh: blockers of LANA interaction with H2A/H2B – biochemical, FP readout, HTS, primary screen; Protein LANA1 (Human herpesvirus 8 type P (isolate GK18)), Q9QR71; cell-free LANA-H2A/H2B peptide, fluorescence polarization; inhibition, % (test concentration not listed); actives 0.6% (n = 320,000); AID 2629, 2010; in the data active = inhibition mostly above about 10%, no sharp cut-off; inactive = mostly below about 6.7%;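 also: stock transfer was 7.5 nL into about 10 µL; 0% = median of vehicle wells and 100% = median of positive control wells; one replicate is shown; the record names a cut of 25% in any replicate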
Vif TR-FRET: inhibitors of Vif binding to APOBEC3G peptide, primary screen, biochemical, TR-FRET, GST-Vif 1-94, biotin-A3G peptide, dose response retest (AID 1117319); one-dose inhibition, %; IC50 in µM for titrated hits; Virion infectivity factor (Human immunodeficiency virus type 1 group M subtype B (isolate …; actives 0.57% (n = 260,000); TR-FRET GST-Vif / biotin-A3G peptide binding; higher % means a stronger effect; test concentration not given here; strong numbers were not always called active;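 active = above the screen mean plus three standard deviations and confirmed in dose response; inconclusive = results disagree or hit not tested in dose response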;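 also: Vif residues 1-94 fused to GST binding biotinylated APOBEC3G peptide 110-148; 0% = full assay without inhibitor and 100% = GST in place of GST-Vif; retest series ran down from 100 µM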
AF4-AF9 inh: inhibitors of AF4 peptide binding to AF9, primary screen, biochemical, AlphaScreen, biotin-AF4 peptide, FLAG-AF9, single point; Protein AF-9 (Homo sapiens), P42568; actives 0.47% (n = 350,000); inhibition, % at 10 µM;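 active = every replicate reaching a set inhibition limit, whatever the replicate mean, cut at about 25% in these data; inconclusive = mean inhibition reaches that limit but some replicates miss it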;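 also: 0% = plate neutral control median and 100% = total signal loss; the record names both 10 and 1 µM as test concentration; the first replicate is given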
Target sequence (P42568 whole entry, looked up): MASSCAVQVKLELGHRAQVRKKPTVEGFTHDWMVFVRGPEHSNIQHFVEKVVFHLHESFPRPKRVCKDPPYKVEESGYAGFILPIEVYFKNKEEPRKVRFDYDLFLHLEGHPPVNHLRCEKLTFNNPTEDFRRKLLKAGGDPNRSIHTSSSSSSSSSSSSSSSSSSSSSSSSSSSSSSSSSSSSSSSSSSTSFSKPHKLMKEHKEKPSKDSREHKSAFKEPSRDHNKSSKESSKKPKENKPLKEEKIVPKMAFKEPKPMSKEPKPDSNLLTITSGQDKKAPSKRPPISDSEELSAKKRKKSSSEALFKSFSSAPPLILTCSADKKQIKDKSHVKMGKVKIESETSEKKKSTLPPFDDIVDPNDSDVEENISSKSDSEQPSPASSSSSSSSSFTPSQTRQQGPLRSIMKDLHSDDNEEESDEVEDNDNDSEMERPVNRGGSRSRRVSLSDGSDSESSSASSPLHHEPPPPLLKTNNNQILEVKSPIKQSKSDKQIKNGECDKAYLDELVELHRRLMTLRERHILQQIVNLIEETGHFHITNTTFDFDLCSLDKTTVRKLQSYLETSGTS
T cruzi repl: inhibitors of intracellular T. cruzi growth, primary screen, luminescence, NIH3T3 host cells; T. cruzi beta-gal in NIH3T3, 90 h; inhibition, % (no concentration beside the values); actives 1.4% (n = 300,000);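 active = mean inhibition across valid replicates above about 55%, limit read from the data; inconclusive = mean below that limit but half or more replicates reach it; inactive = mean below it, under half of replicates reach it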;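 also: signal also drops with host cell toxicity which is not excluded here; 0% = plate median of DMSO wells and 100% = zero luminescence signal; higher percent means less beta-gal luminescence so fewer parasites; stock transfer was 50 nL into about 50 µL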
A1 inh: caspase 3/7 activation in MEF A1-2A-BIM cells, primary screen, A1 inhibitor project, cell-based, luminescence, HTS. Caspase-Glo 3/7 luminescence, 3 h; percent of clofoctol response, vehicle zero. actives 0.066% (n = 330,000). caspase activation, % (no concentration beside the values). AID 2462, 2010;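 active = over half of replicate activation scores above 10%, or exactly half above 10 with the replicate mean above 10; inconclusive = replicate mean below 10 yet half the replicates above 10; inactive = over half of replicates below 10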;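 also: wells of about 30 µL received 50 nL stock; many hits fall short of the cut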
Calb FLC: C. albicans growth inhibition with fluconazole, primary screen, CaCi-2 strain, Alamar Blue fluorescence. actives 0.57% (n = 300,000). growth inhibition, % (test concentration not listed). C. albicans CaCi-2 (fluconazole-resistant clinical isolate) + fluconazole, 48 h. AID 1979, 2009;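 active = most replicates above 75%; inconclusive = exactly half above 75%; inactive = most below 75%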;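 also: all wells also contain fluconazole at 8 µg/ml as a sub-toxic cotreatment; 0% = median of DMSO wells and 100% = median of geldanamycin control wells; wells of about 8 µL received 7.5 nL stock; the first replicate is given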
Beta cell apopt: inhibitors of cytokine-induced beta cell apoptosis, primary screen, luminescence. INS-1E cytokine-induced death, ATP luminescence, 48 h; percent of positive-control rescue, neutral wells zero. protection from apoptosis, % (no concentration beside the values). actives 0.8% (n = 300,000). AID 435005, 2010;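 active = all replicates at 75% or more, or half of them and the mean; inconclusive = half reach 75% but not the mean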;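 also: 0% = cytokine-treated negative control wells and 100% = positive control rescue; higher means more ATP so stronger rescue from cytokine killing; wells of about 40 µL received 100 nL stock; the first replicate is given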
* = called active by the depositor; ? = inconclusive; / = no result given.

SMILES	RanGTP-Imp inh	LANA-H2B inh	Vif TR-FRET	AF4-AF9 inh	T cruzi repl	A1 inh	Calb FLC	Beta cell apopt
O=C(CSc1ccccc1)NC1=NCCS1	-2.7	1.5	2%	1.6	?	0.1	3	-19
O=C(CNC(=O)c1ccc(F)cc1)c1ccccc1	?	-1.6	-2%	0.9	-9	-5.2	0	0
Cc1ccc(-c2cn(CCC(=O)O)c(-c3ccc(Cl)nc3)n2)cc1	/	-1.4	/	-0.7	/	-0.2	/	-2
O=C1CC(N2CCSCC2)C(=O)N1c1cccc(Br)c1 (stereo not drawn)	-2.0	-6.9	7%	-2.4	2	-0.6	-3	-5
CCOC(=O)C1CCCN(c2cc(NCCCO)c([N+](=O)[O-])c3nonc23)C1 (stereo not drawn)	?	0.5	/	2.1	-6	1.2	-4	-3
O=C(NCCCN1CCOCC1)C1Cc2c(ccc3ccccc23)O1 (stereo not drawn)	-1.4	-7.3	-8%	1.0	1	-0.7	26	0
Cc1nc([N+](=O)[O-])cn1Cc1cccc([N+](=O)[O-])c1	2.3	-1.6	-1%	-1.6	16	0.8	8	-6
CCCN(CCC)C(C)C(=O)NCC1(c2ccccc2)CCCC1 (stereo not drawn)	0.7	4.9	2%	-1.1	17	-0.1	1	4
O=C(CCC1CCCCC1)Nc1nnc(C(F)(F)F)s1	5.5	/	/	-4.3	1	/	29	/
Cc1cc(C)c2nc(SCC(=O)N3CC(=O)Nc4ccccc43)c(C#N)cc2c1	1.1	-0.1	-232%	/	49	0.0	-8	50
CC(Sc1nncn1-c1ccccc1)C(=O)Nc1cccc([N+](=O)[O-])c1 (stereo not drawn)	1.6	1.6	/	-0.5	-12	1.1	-3	1
Cc1ccc(N=C(NOCc2ccc(Cl)cc2Cl)c2nonc2N)c(C)c1	1.5	-3.0	-7%	1.9	?	0.2	-2	11
O=C(/C=C/Nc1ccccc1F)c1ccc(Br)cc1	-0.2	-250	21%	/	17	-6.2	1	8
O=C(N/N=C/c1cccs1)c1cncc(Br)c1	1.8	3.4	/	-6.4	-11	0.7	-7	-10
CCNc1nc(Cl)nc(NC2CCCCC2)n1	1.8	-4.4	/	-1.3	-19	0.0	-4	/
Nc1nc(C23CC4CC(CC(C4)C2)C3)[nH]c(=O)n1	0.7	-1.6	-1%	-2.2	/	0.4	-6	-2
Cc1ccc(CNC(=O)CN(c2cccc([N+](=O)[O-])c2)S(=O)(=O)c2ccccc2)cc1	0.5	-7.2	/	/	18	0.0	31	-2
COc1ccc2c(c1)nc(SCC(O)c1ccccc1)n2C (stereo not drawn)	-2.8	8.2	9%	-3.0	-12	0.7	24	-7
CCn1c(SCC(=O)Nc2cc(C)on2)nnc1-c1cccnc1	1.1	0.6	9.5µM*	0.2	-15	0.1	11	3
CCn1c(CSCc2ccc(Cl)cc2)n[nH]c1=S	3.4	-1.4	3%	-6.4	2	0.2	17	/

A different layout for some results above.
Screens in order: RanGTP-Imp inh, LANA-H2B inh, Vif TR-FRET, AF4-AF9 inh, T cruzi repl, A1 inh, Calb FLC, Beta cell apopt
O=C(N/N=C/c1cccs1)c1cncc(Br)c1
 : 1.8, 3.4, /, -6.4, -11, 0.7, -7, -10
CCNc1nc(Cl)nc(NC2CCCCC2)n1
 : 1.8, -4.4, /, -1.3, -19, 0.0, -4, /

Next part:
SMILES	RanGTP-Imp inh	LANA-H2B inh	Vif TR-FRET	AF4-AF9 inh	T cruzi repl	A1 inh	Calb FLC	Beta cell apopt
O=c1cc2c(nn1Cc1ccccc1)-c1ccccc1CC2	-1.3	-3.8	/	-1.3	0	-0.3	16	-11
CN(C(=O)Nc1ccccc1)C1CCCc2ccccc21 (stereo not drawn)	-2.3	2.7	1%	1.0	-4	-0.5	-2	0
Cc1cc(C[n+]2cc(Cl)ccc2N)c2ncccc2c1	-2.3	3.4	-1%	1.3	9	0.2	15	2
COc1ccc(C)cc1NC(=O)C/C(C)=N/NC(=O)Cc1cccc2ccccc12	6.9	4.2	/	0.1	-3	-0.2	5	-5
Cc1cccc(-n2nnc3c(=O)n(Cc4ccccn4)cnc32)c1	2.5	2.7	32%	-3.0	-4	0.5	-26	-4
O=C(CN1CCN(c2ccc(F)cc2)CC1)Nc1ccccc1Br	1.6	5.5	-3%	0.3	-5	1.1	6	/
CN(c1ccc([N+](=O)[O-])cc1/C=N/NC(=O)COc1ccccc1)C1CCCCC1	1.3	0.9	-4%	9.1	31	-0.2	?	8
COCc1cc(CN2CCN(Cc3ccsc3)C(CCO)C2)ccc1OC (stereo not drawn)	-1.7	-1.0	1%	-6.4	2	-1.4	-12	-17
N#CC1=C(S)N(c2ccccc2)C(c2ccc(-c3ccccc3Cl)o2)NC1=O (stereo not drawn)	6.1	-6.0	/	/	-4	-0.5	1	0
O=C(Nc1ccccc1)Nc1ccc2ncoc2c1	2.6	-0.2	7%	-0.6	-11	-3.7	6	-17
CCc1ccc2nc(NC(=O)CCCc3cccs3)sc2c1	2.6	-0.8	-7%	/	19	0.4	0	-5
Clc1ccc(OCCCN2CCCCC2)c(Br)c1	4.3	-8.7	0%	2.9	46	-0.6	-11	9
O=C(CCCN1C(=O)c2cccc3cccc(c23)C1=O)N1CCN(c2ccccc2)CC1	3.2	17*	-3%	-16	4	0.2	-7	3
Cc1c(S(=O)(=O)N2CCN(C(c3ccccc3)c3ccccc3)CC2)c(=O)n(C)c(=O)n1C	-6.3	4.1	0%	-1.2	6	0.0	-4	-4
CCC(C)NC(=O)CO/N=C/c1ccccc1OC(F)F (stereo not drawn)	2.7	-2.7	-6%	-0.4	-2	-0.1	-5	-6
CCCOC(=O)CSC1=C(C#N)C(c2ccc3c(c2)OCO3)CC(=O)N1 (stereo not drawn)	-3.7	-2.2	2%	/	5	0.8	0	-5
CCCCC(=O)NNC(=S)NC(=O)c1ccc([N+](=O)[O-])cc1	2.8	5.0	-4%	-2.2	3	1.0	?	0
CCN(CC(=O)Nc1c(F)cccc1F)C(=O)CCc1nc2sc3c(c2c(=O)[nH]1)CCCC3	-0.9	/	12%	-3.4	0	-0.4	-11	-1
CNC(=S)N(CCO)Cc1cc2cc3c(cc2[nH]c1=O)OCO3	-10	-3.0	6%	-4.4	-1	1.1	3	2
Cc1ccc(NC(=O)CN(C)C(=O)c2ccc(NC(=O)CC3SC(N4CCCC4)=NC3=O)cc2)cc1 (stereo not drawn)	-0.7	-1.1	10%	-1.5	-5	0.5	-2	-6

Arranged by heavy-atom count (lowest first): part of the list above.
SMILES	RanGTP-Imp inh	LANA-H2B inh	Vif TR-FRET	AF4-AF9 inh	T cruzi repl	A1 inh	Calb FLC	Beta cell apopt
Clc1ccc(OCCCN2CCCCC2)c(Br)c1	4.3	-8.7	0%	2.9	46	-0.6	-11	9
O=C(Nc1ccccc1)Nc1ccc2ncoc2c1	2.6	-0.2	7%	-0.6	-11	-3.7	6	-17
Cc1cc(C[n+]2cc(Cl)ccc2N)c2ncccc2c1	-2.3	3.4	-1%	1.3	9	0.2	15	2
CN(C(=O)Nc1ccccc1)C1CCCc2ccccc21 (stereo not drawn)	-2.3	2.7	1%	1.0	-4	-0.5	-2	0
CCCCC(=O)NNC(=S)NC(=O)c1ccc([N+](=O)[O-])cc1	2.8	5.0	-4%	-2.2	3	1.0	?	0
CNC(=S)N(CCO)Cc1cc2cc3c(cc2[nH]c1=O)OCO3	-10	-3.0	6%	-4.4	-1	1.1	3	2
O=C(CN1CCN(c2ccc(F)cc2)CC1)Nc1ccccc1Br	1.6	5.5	-3%	0.3	-5	1.1	6	/
CCCOC(=O)CSC1=C(C#N)C(c2ccc3c(c2)OCO3)CC(=O)N1 (stereo not drawn)	-3.7	-2.2	2%	/	5	0.8	0	-5
COCc1cc(CN2CCN(Cc3ccsc3)C(CCO)C2)ccc1OC (stereo not drawn)	-1.7	-1.0	1%	-6.4	2	-1.4	-12	-17
N#CC1=C(S)N(c2ccccc2)C(c2ccc(-c3ccccc3Cl)o2)NC1=O (stereo not drawn)	6.1	-6.0	/	/	-4	-0.5	1	0
COc1ccc(C)cc1NC(=O)C/C(C)=N/NC(=O)Cc1cccc2ccccc12	6.9	4.2	/	0.1	-3	-0.2	5	-5
CCN(CC(=O)Nc1c(F)cccc1F)C(=O)CCc1nc2sc3c(c2c(=O)[nH]1)CCCC3	-0.9	/	12%	-3.4	0	-0.4	-11	-1
Cc1ccc(NC(=O)CN(C)C(=O)c2ccc(NC(=O)CC3SC(N4CCCC4)=NC3=O)cc2)cc1 (stereo not drawn)	-0.7	-1.1	10%	-1.5	-5	0.5	-2	-6

(more compounds)
SMILES	RanGTP-Imp inh	LANA-H2B inh	Vif TR-FRET	AF4-AF9 inh	T cruzi repl	A1 inh	Calb FLC	Beta cell apopt
Cc1ccsc1C(=O)OCC(=O)N1CCOCC1	4.2	0.3	-6%	/	-25	-1.1	-5	-3
COc1ccc(-n2nnc3c(=O)n(CC(=O)N4CCCCC4)cnc32)cc1	4.9	-6.1	/	5.3	-8	-0.2	-8	-8
CCOC(=O)/C(C#N)=C/c1cn(CCC(=O)O)nc1-c1cccc(Cl)c1	2.7	-1.7	17%	12	-3	-0.3	16	7
Cc1ccccc1Nc1nc(N)nc(COC(=O)c2cccn2C)n1	8.3	5.5	3%	/	-6	0.9	1	-7
CC(=O)NC1(C(F)(F)F)N=C(c2ccccc2)NC1=O (stereo not drawn)	-4.5	1.8	27%	/	15	-0.4	18	2
O=C(O)CN1C(=O)C(=O)N(Cc2ccc(Cl)cc2Cl)C1=O	-0.5	3.3	-4%	-2.2	-7	0.9	4	-2
O=C(NCc1ccco1)C(C(=O)c1ccccc1)n1ccccc1=O (stereo not drawn)	2.9	1.8	-7%	/	-12	0.3	-3	0
O=C(Nc1ccc2c(c1)OCCO2)C1CCCN(S(=O)(=O)Cc2ccccc2)C1 (stereo not drawn)	2.8	-1.6	25%	/	1	0.4	-3	-2
CCn1nc(C(=O)OCC(=O)NCC(C)C)c2ccccc2c1=O	-1.8	0.6	-2%	-5.6	-14	-0.8	11	-3
Cc1cc(NC(=O)COC(=O)CCNS(=O)(=O)c2cccc(C(F)(F)F)c2)no1	0.2	-0.7	/	-0.2	-1	-0.8	-8	-1
O=c1oc2cc(Oc3ccc(C(F)(F)F)cc3[N+](=O)[O-])ccc2c2c1CCCC2	10	0.3	12%	/	40	0.8	-2	/
C(=C\c1ccccc1)/C=N/N1CCN(c2ccccn2)CC1	3.2	-4.1	0%	/	-5	-6.4	2	0
